Screening data deposited in PubChem BioAssay by several laboratories.
CSC inhib – cancer stem cell inhibition | cancer stem cell-like cells viability, luminescence | inhibition, % at 7.5 µM | 300,000 compounds, 1.1% hits | AID 2717;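 active = mean at 75% or more and at least half the replicates too; inconclusive = mean and replicates disagree; tested in HMLE shEcad cells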;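 note: 0% = median of negative and 100% = median of positive control wells; the first replicate is given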
Rce1 inhib – inhibitors of yeast Ras-converting enzyme. 290,000 compounds, 0.27% hits. AID 2563. Q03530. yeast membranes, quenched prenylated peptide cleavage fluorescence. calls only;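 active = fall in fluorescence gain of 50% or more versus controls, with final raw signal at or below 3038400; inconclusive = same 50% fall but final raw signal above 3038400; inactive = fall in fluorescence gain under 50%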;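 note: plate controls were neutral control wells for no effect and wells lacking membranes for full effect; tested at 10 µM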
Env fusion inh – HIV envelope-mediated fusion inhibition; HeLa-JRFL Env/CEM21 cell fusion, luciferase; inhibition, % at 12.3 µM; 360,000 compounds, 1.1% hits;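 active = mean replicate inhibition score of at least 50 and every replicate individually at or above 50; inconclusive = only one of the two criteria met; inactive = mean below 50 and not all replicates reaching 50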;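 note: 0% = plate neutral controls and 100% = maraviroc near 300 nM; one replicate is shown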
UUG fidelity – yeast start codon fidelity modulation | S. cerevisiae UUG-firefly luciferase reporter, luminescence/redox ratio | activity score, % at 18.7 µM | 350,000 compounds, 0.13% hits | AID 602363;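 active = replicate mean at a twofold rise or more, about +100% in these data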;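 note: firefly luciferase made from a UUG start codon reports start codon fidelity; reporter light over untreated wells divided by growth signal over untreated wells; some hits fall short of that in this replicate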
PABP polyA inh – PABP-poly(A) binding inhibition | P11940 | PABP-poly(A) RNA binding, fluorescence polarization | inhibition, % at 35 µM | 290,000 compounds, 1% hits | AID 2014;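 active = 50% or more with normal probe brightness, or confirmed in later tests; inconclusive = above 50% with abnormal brightness, or retests that disagree; inactive = below 50% or failed in later tests; about a fifth of its hits are not listed in these tables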;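 note: calls also rest on retests at 20 µM and on dose response follow-up; controls were probe without protein and protein plus probe with vehicle; some compounds called inactive have numbers as strong as hits; many hits fall short of the cut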
Target sequence (P11940 whole entry, looked up): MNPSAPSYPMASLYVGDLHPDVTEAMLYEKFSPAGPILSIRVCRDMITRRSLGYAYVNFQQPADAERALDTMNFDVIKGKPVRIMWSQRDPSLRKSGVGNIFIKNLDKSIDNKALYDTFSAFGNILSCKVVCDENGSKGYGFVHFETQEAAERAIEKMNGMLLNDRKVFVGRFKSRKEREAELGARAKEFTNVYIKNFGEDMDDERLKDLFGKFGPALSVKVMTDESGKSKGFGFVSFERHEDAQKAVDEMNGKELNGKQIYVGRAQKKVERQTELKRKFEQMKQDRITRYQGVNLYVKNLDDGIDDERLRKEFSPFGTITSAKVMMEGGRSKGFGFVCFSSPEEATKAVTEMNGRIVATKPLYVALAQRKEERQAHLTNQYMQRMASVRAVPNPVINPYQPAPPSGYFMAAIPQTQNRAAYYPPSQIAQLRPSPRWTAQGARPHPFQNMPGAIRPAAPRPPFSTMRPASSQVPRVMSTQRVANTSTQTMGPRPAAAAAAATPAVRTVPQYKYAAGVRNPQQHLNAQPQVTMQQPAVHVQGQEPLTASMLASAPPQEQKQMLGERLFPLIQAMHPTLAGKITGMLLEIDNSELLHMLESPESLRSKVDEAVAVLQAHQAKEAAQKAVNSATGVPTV
MT1-MMP act inh – blocks activation of human MT1-MMP; P50281; HT1080 RFP-PRO-GFP cells, GFP/RFP ratio fluorescence, overnight; percent of plate control window, DMSO zero; GFP/RFP ratio change, % at 20 µM; 360,000 compounds, 0.061% hits; AID 651647;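 active = GFP/RFP ratio change of at least 30% with cell ATP level not reduced by more than half and red fluorescence within 50% of control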; note: strong numbers were not always called active
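Material: RFP-PRO-GFP reporter HT1080 cells. Dosing: single-point 20 µM compound, 1% DMSO. Controls: DMSO and RFP-L50D-GFP cell wells. Timing: cells overnight before dosing, compound overnight, 37 °C, 5% CO2. Measure: GFP/RFP fluorescence ratio.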
eIF4H FP inh – inhibitors of RNA binding by human eIF4H; Q15056; eIF4H fluorescence polarization binding assay; inhibition, % at 35 µM; 290,000 compounds, 0.94% hits; AID 2012;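 active = 50% or more with normal probe brightness, or confirmed in later tests; inconclusive = above 50% with abnormal brightness, or retests that disagree; inactive = below 50% or failed in later tests; about a fifth of its hits are not listed in these tables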;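 note: calls also rest on retests at 20 µM and on dose response follow-up; 0% = protein and probe with vehicle and 100% = probe without protein; strong numbers were not always called active; many hits fall short of the cut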
eIF4H FP inh retest – further read-out of eIF4H FP inh, marked with its call; inhibition, %; compound at 20 µM; confirmation average;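 mean of two retest wells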
PABP polyA inh retest – second read-out of PABP polyA inh, no call of its own (marks repeat the call); inhibition, %; compound at 20 µM; confirmation repeats;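 mean of two retest wells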
MT1-MMP act inh RFP – recorded beside MT1-MMP act inh, whose call it bears; RFP signal change, %; measured here: RFP expression control read;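 0 = vehicle wells; hits needed this value within 50% of zero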
* = called active by the depositor; i = inactive; ? = inconclusive; . = not tested or not shown. Some of the compounds tested; the hit share may differ from the screen's.

SMILES | CSC inhib | Rce1 inhib | Env fusion inh | UUG fidelity | PABP polyA inh | MT1-MMP act inh | MT1-MMP act inh RFP | eIF4H FP inh | others
Cc1cc2nc(N)sc2cc1[N+](=O)[O-] | 9 | i | . | -14 | -1 | -7 | -6 | 2
CCOc1c(Br)cc(C(N)=O)cc1OCc1ccccc1 | 7 | i | -22 | . | -8 | 1 | -4 | -11
Cc1ccc(S(=O)(=O)N(C)S(=O)(=O)c2ccc(C)cc2)cc1 | -1 | i | 3 | 16 | . | 4 | 2 | .
COc1cc2[nH]c(=S)nc(NCc3ccccc3)c2cc1OC | 5 | i | 9 | -9 | -2 | 3 | -4 | 0
O=C(O)CCc1ccc(-c2ccccc2)n1-c1cccc(C(=O)O)c1 | -4 | i | 8 | -10 | -2 | 0 | 2 | 3
COc1ccc(-c2cn[nH]c2C)cc1OC | 4 | i | -2 | . | -5 | -1 | -6 | 15
Cc1nc2scc(C)n2c(=O)c1S(=O)(=O)Nc1ccc(N2CCN(S(C)(=O)=O)CC2)cc1 | 3 | i | -1 | -18 | . | -6 | -12 | .
CCNC(=S)NS(=O)(=O)c1ccc(F)cc1 | -1 | i | -14 | . | 28 | -4 | 0 | -1
Cc1ccc(Cn2ccc(NC(=O)c3cc(C(C)C)on3)n2)cc1 | -1 | i | -55 | -1 | -6 | 3 | -1 | -10
Cc1ccccc1-c1nnc(SCC(=O)Nc2cccc(C)c2C)o1 | -4 | . | -61 | -6 | 0 | 4 | 5 | 2
O=C(NNC(=O)c1ccc(Br)s1)NC1CCCCC1 | 0 | i | 5 | -3 | 9 | -2 | 0 | -5
C[C@H](NC(=O)N1CCn2c1nc1ccccc12)C(=O)NC1CC1 | -8 | i | -5 | -14 | 2 | -1 | 0 | 8
COC(=O)c1ccc(/C=N/NC(=O)c2ccc3nc[nH]c3c2)cc1 | 10 | i | 0 | -18 | 12 | -1 | -2 | -1
CC1=C(C(=O)N(C)C)CC(CC(=O)NCCCCc2ccccc2)C(=O)N1Cc1ccccc1 (stereo not given) | . | . | -6 | -8 | . | 0 | 5 | .
BrC(=C\c1ccccc1)/C=N/Nc1ccc2nncn2n1 | -4 | i | -12 | -17 | 1 | 7 | 0 | -11
COCCNc1nc(N)c([N+](=O)[O-])c(NCc2ccccc2)n1 | -6 | i | 20 | . | 5 | 1 | 1 | 0
COc1cccc(NC(=O)CN(C)C(=O)CSc2nc(C)cc(C)n2)c1 | . | . | 0 | -6 | . | 2 | 0 | .
COc1cc(C(=S)N2CCCC2)ccc1OS(=O)(=O)c1ccc(NC(C)=O)cc1 | -1 | i | 33 | -23 | 2 | 1 | -6 | -11
Cc1cc(C(=O)NCCN2CCOCC2)ccc1[N+](=O)[O-] | -5 | . | 16 | . | 8 | 0 | 4 | -4
CN1C(=O)CC(N2CCC(C(N)=O)(N3CCCCC3)CC2)C1=O (stereo not given) | -12 | i | -27 | -1 | 2 | 3 | -3 | -3
Cc1nn(C)c(C)c1C(C)NC(=O)c1ccc(OC2CCN(Cc3ccccn3)CC2)cc1 (stereo not given) | . | i | 0 | 3 | 10 | 0 | -4 | 21
COc1ccc(NC(=O)c2cc(C(C)C)on2)c(OC)c1 | -8 | i | -23 | 10 | -10 | -2 | 0 | -4
O=C1CCCN1CCCN1CC(C(=O)N(CCO)Cc2ccccc2)CCC1=O (stereo not given) | -5 | i | -16 | 11 | 17 | -1 | 2 | 4
O=C(Nc1ccc(OCc2ccccc2)cc1)Nc1cccnc1 | 17 | i | 3 | -11 | -12 | 5 | 3 | -5
CC1CC(C)CN(CCCNC(=O)CCC(=O)N2CC(C)Oc3ccccc32)C1 (stereo not given) | . | i | . | 13 | -8 | -1 | 5 | 0
COc1ccc(N2C(=O)NC3CC2(C)Oc2ccccc23)cc1 (stereo not given) | 1 | i | -2 | -13 | -8 | -1 | 3 | -10
Nc1nc(-c2ccccc2)cn1N | 8 | i | . | -31 | 4 | 0 | 3 | 2
Cc1cc(C)c(S(=O)(=O)c2ccccc2C(=O)O)c(C)c1 | -8 | i | -11 | -7 | 12 | -4 | 1 | 0
CC(C)CNC(=O)CSc1nnc(-c2ccc(Cl)cc2)n1N | -8 | i | -3 | -17 | 9 | 5 | 4 | -11
COc1ccc(C(=O)CCC(=O)Nc2cccnc2)c(OC)c1 | -3 | i | 2 | 0 | 8 | 0 | 1 | -8
COC(=O)C1=C(C)Nc2c(c(=O)n(C)c(=O)n2C)C1c1cccc(O)c1 (stereo not given) | -2 | i | -4 | -17 | -13 | 6 | 3 | -2
c1ccc(C2=Nn3c(nnc3-c3ccco3)SC2)cc1 | . | i | -7 | . | 4 | 5 | 2 | -5
Cn1c(=O)[nH]c(=O)c2c1nc(N1CCCCC1)n2CC(O)COc1ccc([N+](=O)[O-])cc1 (stereo not given) | -2 | i | 9 | -2 | 4 | 3 | 0 | -2
Clc1cccc(Nc2nc(-c3ccncc3)cs2)c1 | ? | i | 10 | . | 4 | -10 | -13 | 2
COc1ccc(-n2nc(C(=O)NCC(=O)NC(C)C)c3ccccc3c2=O)c(OC)c1 | -4 | i | -4 | -3 | 7 | -2 | 0 | -4
Cc1ccc(C(=O)N/C(=C\c2ccc(Cl)cc2)C(=O)NCC2CCCO2)cc1 (stereo not given) | 6 | i | 12 | -12 | -16 | -3 | -1 | -3
COc1ccc(C(CNC(=O)c2cccc(S(=O)(=O)Nc3ccccc3OC)c2)N2CCOCC2)cc1 (stereo not given) | 4 | i | . | -3 | . | 2 | -1 | .
COc1cc(C(=O)Nc2ccc(OCC(=O)O)cc2)cc(OC)c1OC | -8 | i | -53 | -17 | -5 | -7 | -2 | 0
Cc1ccc(C(=O)OCC(=O)Nc2ccccc2N2CCOCC2)cc1 | -9 | i | . | 4 | -4 | -1 | 2 | 100 | eIF4H FP inh retest=-1;PABP polyA inh retest=5
COc1ccccc1NC1=CC(=O)CC(c2ccccc2)C1 (stereo not given) | -13 | i | . | -9 | -9 | -5 | 3 | -11
O=C1C2CC=CCC2C(=O)N1Nc1ccccc1 (stereo not given) | -9 | i | -9 | . | 0 | 2 | -2 | 0
NC(=O)C1CC(O)CN1c1nc(CN2CCOCC2)nc2scc(-c3ccccc3)c12 (stereo not given) | -10 | i | -73 | -12 | -9 | 9 | 5 | -2
C=CCn1c(=NC(=O)c2cccs2)sc2cc(NC(C)=O)ccc21 | 0 | i | 2 | -11 | -11 | -9 | -3 | 7
O=C(Nc1ccncc1Cl)c1ccncc1 | -10 | i | 1 | -11 | 7 | -4 | 1 | 3
COc1ccc(-n2nc(C(=O)NCC(=O)NCC3CCCO3)c3ccccc3c2=O)cc1Cl (stereo not given) | -11 | . | -72 | -19 | -2 | 2 | 1 | 1
CN(CCc1ccccc1)C(=O)c1ccc(NC(=O)Cc2ccc(NC(=O)C3CCN(C(=O)CCc4ccccc4)CC3)cc2)cc1 | . | . | ? | -13 | . | 5 | -26 | .
CCCCc1nc2cc(C(=O)N3CCCCC3CCNC(C)=O)ccc2o1 (stereo not given) | -2 | i | -7 | -13 | 3 | 3 | 5 | 1
Cc1cc(NC(=O)COc2ccc(N(C)S(=O)(=O)c3ccccc3)cc2)no1 | 10 | i | . | 4 | -14 | 7 | 5 | 0
CC(Sc1ccccc1)C(=O)N/N=C/c1ccccc1 (stereo not given) | -4 | i | 12 | . | . | 0 | -2 | .
CC(=O)c1cccc(S(=O)(=O)NCCC(=O)O)c1 | -8 | i | -8 | -7 | 2 | 3 | 2 | -6

(cont.)
SMILES | CSC inhib | Rce1 inhib | Env fusion inh | UUG fidelity | PABP polyA inh | MT1-MMP act inh | MT1-MMP act inh RFP | eIF4H FP inh | others
O=C(Nc1cc(S(=O)(=O)N2CCOCC2)ccc1N1CCOCC1)c1cccc(S(=O)(=O)N2CCCCC2)c1 | 9 | i | -10 | . | 2 | 1 | -1 | -4
COc1ccccc1NC(=O)CSc1nncn1-c1ccccc1 | -6 | i | -37 | 3 | -6 | -2 | -1 | 5
O=c1cc(O)nc(SC23CC4CC(CC(C4)C2)C3)[nH]1 | -7 | i | . | -27 | 3 | -4 | 6 | 2
O=C(Nc1ccccc1N1CCN(c2ccc(F)cc2)CC1)c1ccccc1 | -18 | i | -9 | -10 | -6 | 1 | -4 | -5
Cc1c(CC(=O)NCCC(C)C)c(=O)oc2cc3c(cc12)CCC(C)(C)O3 | 14 | i | 2 | -10 | -8 | 3 | -2 | -12
COc1ccc(/C=N/Nc2nc(=O)[nH]nc2C)cc1OC | -5 | i | -10 | . | -6 | 2 | 0 | -7
COc1cc(C(=O)NCc2ccc(-n3cccc3)cc2)cc(OC)c1OC | -16 | i | . | . | -7 | 5 | 1 | 4
CC(=O)N1CCCC1(C(=O)O)c1ccccc1 (stereo not given) | -14 | i | 7 | -14 | 4 | 3 | 3 | -4
OCCNc1nnc(-c2ccccc2)c(-c2ccccc2)n1 | -15 | i | 2 | . | . | 8 | 7 | .
Cc1cc(C(=O)N/N=C/c2cccc([N+](=O)[O-])c2)c(C)n1-c1ccccc1 | 11 | i | -15 | . | 14 | 3 | 0 | 2
O=S(=O)(NCc1ccccc1)c1ccc(S(=O)(=O)N(Cc2cccs2)CC2CCCO2)cc1 (stereo not given) | -3 | i | 61* | -6 | 8 | -3 | -1 | -10

Molecules shown so far containing a halogen:
SMILES | CSC inhib | Rce1 inhib | Env fusion inh | UUG fidelity | PABP polyA inh | MT1-MMP act inh | MT1-MMP act inh RFP | eIF4H FP inh | others
CCOc1c(Br)cc(C(N)=O)cc1OCc1ccccc1 | 7 | i | -22 | . | -8 | 1 | -4 | -11
CCNC(=S)NS(=O)(=O)c1ccc(F)cc1 | -1 | i | -14 | . | 28 | -4 | 0 | -1
O=C(NNC(=O)c1ccc(Br)s1)NC1CCCCC1 | 0 | i | 5 | -3 | 9 | -2 | 0 | -5
BrC(=C\c1ccccc1)/C=N/Nc1ccc2nncn2n1 | -4 | i | -12 | -17 | 1 | 7 | 0 | -11
CC(C)CNC(=O)CSc1nnc(-c2ccc(Cl)cc2)n1N | -8 | i | -3 | -17 | 9 | 5 | 4 | -11
Clc1cccc(Nc2nc(-c3ccncc3)cs2)c1 | ? | i | 10 | . | 4 | -10 | -13 | 2
Cc1ccc(C(=O)N/C(=C\c2ccc(Cl)cc2)C(=O)NCC2CCCO2)cc1 (stereo not given) | 6 | i | 12 | -12 | -16 | -3 | -1 | -3
O=C(Nc1ccncc1Cl)c1ccncc1 | -10 | i | 1 | -11 | 7 | -4 | 1 | 3
COc1ccc(-n2nc(C(=O)NCC(=O)NCC3CCCO3)c3ccccc3c2=O)cc1Cl (stereo not given) | -11 | . | -72 | -19 | -2 | 2 | 1 | 1
O=C(Nc1ccccc1N1CCN(c2ccc(F)cc2)CC1)c1ccccc1 | -18 | i | -9 | -10 | -6 | 1 | -4 | -5
